Mtb bLac sens = beta-lactam sensitization of Mtb H37Rv | AID 434955 | M. tuberculosis H37Rv growth with meropenem, percent inhibition; hits of this screen are not shown here | hit rate 0.27% among 330,000 | inhibition, % at 25 µM;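 active = about 74% or more and at least 40 points above the plate without the antibiotic, then above 30% in a dose series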;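 also: growth measured after seven days incubation then overnight dye step; 0% = bacteria only wells and 100% = bacteria with antibiotic; twin plates without the antibiotic show which effects depend on it; some results filed as inactive read as strong as hits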
Mtb H37Rv = M. tuberculosis H37Rv growth inhibitors, H37Rv strain (AID 1626); M. tuberculosis H37Rv growth inhibition; higher % means a stronger effect; inhibition, % at 10 µM, or IC50 in µM where a hit was titrated; hit rate 0.95% among 220,000;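 active = confirmed in a dose series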;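 also: bacteria incubated seven days before Alamar blue readout; 0% = bacteria only wells and 100% = bacteria with antibiotic wells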
YopH PTP inh = blocks Yersinia enterocolitica YopH tyrosine phosphatase. fluorescence Ex485/Em525. inhibition, %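 (about 10 µM by stock and volumes)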. hit rate 0.16% among 140,000. AID 898;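 active = inhibition of 50% or more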;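 also: controls were vehicle for no effect and minimum signal wells for full effect; inactives centre near -20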
RecA intein inh = inhibitors of M. tuberculosis RecA intein splicing; P9WHJ3; cell-free RecA intein splicing, fluorescence; inhibition, %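 (about 9 µM by stock and volumes)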; hit rate 0.75% among 290,000; AID 2221; in the data active = inhibition above about 30%;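 also: 0% = vehicle wells and 100% = reference inhibitor control wells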
Target sequence (P9WHJ3 whole entry, looked up): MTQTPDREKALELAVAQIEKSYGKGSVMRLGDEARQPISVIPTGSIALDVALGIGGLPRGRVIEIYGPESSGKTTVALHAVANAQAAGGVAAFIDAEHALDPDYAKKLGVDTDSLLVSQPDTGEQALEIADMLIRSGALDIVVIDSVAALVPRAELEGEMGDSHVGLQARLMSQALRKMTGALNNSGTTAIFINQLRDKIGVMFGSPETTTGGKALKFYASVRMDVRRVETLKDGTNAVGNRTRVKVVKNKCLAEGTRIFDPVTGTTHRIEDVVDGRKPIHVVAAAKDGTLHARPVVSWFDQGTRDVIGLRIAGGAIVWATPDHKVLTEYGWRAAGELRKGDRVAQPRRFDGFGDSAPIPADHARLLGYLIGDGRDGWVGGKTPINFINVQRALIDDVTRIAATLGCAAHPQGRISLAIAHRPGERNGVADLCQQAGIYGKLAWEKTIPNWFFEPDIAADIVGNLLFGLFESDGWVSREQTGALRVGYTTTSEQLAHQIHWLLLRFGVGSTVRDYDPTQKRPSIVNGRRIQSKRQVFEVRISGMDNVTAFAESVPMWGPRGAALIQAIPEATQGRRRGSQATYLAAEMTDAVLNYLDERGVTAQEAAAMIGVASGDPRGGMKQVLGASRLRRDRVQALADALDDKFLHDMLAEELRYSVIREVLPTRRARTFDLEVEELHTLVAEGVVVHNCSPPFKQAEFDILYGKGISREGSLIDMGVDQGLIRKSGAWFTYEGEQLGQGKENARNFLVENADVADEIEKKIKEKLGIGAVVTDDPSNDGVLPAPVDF
Arbovirus anti = arbovirus infection inhibition; arbovirus infection cell-based antiviral screen; hit rate 0.37% among 200,000; AID 1251; inhibition, % at 10 µM;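 active = inhibition from about 30%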;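 also: bluetongue infection of BSR cells; cell survival read as ATP light after 72 h; 0% = infected wells without compound and 100% = uninfected wells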
Arbovirus anti repeat = also measured in Arbovirus anti; calls as there; inhibition, %; measured here: 10K subset replicate screen; many hits read low in the repeat;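 first of two repeat runs on a subset; 0% = infected and 100% = uninfected wells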
* marks the source's active call; other numbers are inactive results. The list is partial; count on the stated rates, not on these rows.

Results for CCOc1ccc(N2CC(C(=O)N3CCCCC3)CC2=O)cc1 (stereo unspecified) ?
Mtb bLac sens: 3; RecA intein inh: 2.5

How did COc1ccc(-c2ccc(-c3noc(C)n3)c(OC)n2)cc1 do in these assays?
Mtb bLac sens: -2; Mtb H37Rv: 6%; YopH PTP inh: -8; RecA intein inh: 1.5; Arbovirus anti: -12

What do the screens show for `CCOC(=O)C1=C(O)/C(=C\c2cc(C)n(-c3ccc(F)cc3)c2C)N=C1C`?
Mtb bLac sens: 2; Mtb H37Rv: 2%; RecA intein inh: 0.3; Arbovirus anti: -1

Results for CC1C(C(=O)Nc2ccccc2)CCCC1(C)C(=O)O (stereo unspecified) ?
Mtb bLac sens: -1; Mtb H37Rv: -5%; YopH PTP inh: -18; RecA intein inh: -0.1; Arbovirus anti: -2

Results for O=C1CCN(C2CCN(Cc3nc(Cc4ccccc4F)no3)CC2)CCN1 ?
Mtb bLac sens: 1; Mtb H37Rv: 5%; RecA intein inh: 4.4; Arbovirus anti: 0

What do the screens show for `COc1ccccc1OCc1nc(C#N)c(N2CCCC2)o1`?
Mtb bLac sens: 8; Mtb H37Rv: -1%; RecA intein inh: -2.9; Arbovirus anti: -3

Results for O=C(NNC(=O)C1CCCCC1)C(=O)NC1CCCCC1 ?
Mtb bLac sens: 4; Mtb H37Rv: 1%; YopH PTP inh: -38; RecA intein inh: 0.2; Arbovirus anti: -3

What do the screens show for `Cc1ccc2ccccc2[n+]1CCCS(=O)(=O)[O-]`?
Mtb bLac sens: -4; Mtb H37Rv: -12%; YopH PTP inh: -53; RecA intein inh: 1.4; Arbovirus anti: -1

Results for Cn1c(CNC(=O)c2ccc(F)cc2)cc2ccccc21 ?
Mtb bLac sens: 8; RecA intein inh: -1.2

What do the screens show for `Cc1ccc2cc(CN(CCCN(C)C)C(=S)NCc3ccccc3)c(=O)[nH]c2c1C`?
Mtb bLac sens: 2; Mtb H37Rv: 3%; RecA intein inh: 0.5; Arbovirus anti: -29

How did CCC(=O)N1CCN(c2ccccc2NC(=O)COc2cc(C)ccc2C(C)C)CC1 do in these assays?
Mtb bLac sens: 5; Mtb H37Rv: 9%; YopH PTP inh: -26; RecA intein inh: 25; Arbovirus anti: -29

Results for COc1ccccc1NC(=O)c1ccc(NC(=O)CN2C(=O)CN(C)C2=O)cc1 ?
Mtb bLac sens: -2; Mtb H37Rv: 3%; RecA intein inh: 2.2; Arbovirus anti: 4

What do the screens show for `O=C(OCc1ccc(Cl)cc1Cl)c1cccnc1Cl`?
Mtb bLac sens: 3; Mtb H37Rv: -6%; YopH PTP inh: -159; Arbovirus anti: 1

Results for CCOC(=O)c1[nH]c2ccc(OC)cc2c1NC(=S)N1CCN(c2ccccn2)CC1 ?
Mtb bLac sens: -1; Mtb H37Rv: 2%; RecA intein inh: -3.1; Arbovirus anti: 1

What do the screens show for `CCOC(=O)C(CC)/C(C)=N\NC(=O)c1cccc(C)c1` (stereo unspecified)?
Mtb bLac sens: 4; Mtb H37Rv: -7%; RecA intein inh: 0.2; Arbovirus anti: -11

Results for CC(C)CCOc1ccc(C(=O)NCCC(=O)N2CCOCC2)cc1 ?
Mtb bLac sens: -2; Mtb H37Rv: -10%; YopH PTP inh: 35; RecA intein inh: 0.5; Arbovirus anti: 2

Results for O=C(Nc1ccc2nc3n(c(=O)c2c1)CCCCC3)c1c(F)ccc([N+](=O)[O-])c1F ?
Mtb bLac sens: 79; RecA intein inh: 60*

Results for O=C(COc1ccccc1F)Nc1nnc(C2CCCC2)s1 ?
Mtb bLac sens: 4; RecA intein inh: 0.6

Results for CCc1cc(=O)oc2cc(OC(=O)CN3C(=O)NC4(CCCC4)C3=O)ccc12 ?
Mtb bLac sens: 56; RecA intein inh: -25

What do the screens show for `Cc1ccc(C)n1-c1c(C(=O)NN)cnn1-c1ccccc1`?
Mtb bLac sens: -5; Mtb H37Rv: 0%; RecA intein inh: -1.6; Arbovirus anti: -8

What do the screens show for `COc1ccc(NC(=O)c2ccc(COc3ccccc3Br)o2)c(OC)c1`?
Mtb bLac sens: 4; RecA intein inh: -0.4

What do the screens show for `CNC(=O)c1[nH]cnc1C(=O)N[C@@H](C)C(=O)OCc1ccccc1`?
Mtb bLac sens: -4; Mtb H37Rv: -1%; RecA intein inh: 15

Results for CSc1ccc(C(=O)C2CCCN(C(=O)c3cccc(N4CCOCC4)c3)C2)cc1 (stereo unspecified) ?
Mtb bLac sens: 4; Mtb H37Rv: -7%; RecA intein inh: 0.9; Arbovirus anti: -6

What do the screens show for `Clc1cc(Cl)c(OCc2nc(-c3ccccn3)no2)cc1Cl`?
Mtb bLac sens: 0; Mtb H37Rv: -8%; YopH PTP inh: -25; RecA intein inh: 1.3; Arbovirus anti: -2

How did CN1C[C@@H]2C(c3ccc(C(F)(F)F)cc3)C3(c4cccnc4)CC2(C3)[C@H]1c1ccccc1 (stereo partly specified) do in these assays?
Mtb bLac sens: 81; Mtb H37Rv: 14µM*; RecA intein inh: 7.2

Results for NS(=O)(=O)c1ccc(CCNC(=O)CNC(=O)Cc2cccc3ccccc23)cc1 ?
Mtb bLac sens: -6; RecA intein inh: -0.1

Results for CCCCOc1ccc(C(=O)N/C(=C/C=C/c2ccccc2)C(=O)O)cc1 ?
Mtb bLac sens: 5; Mtb H37Rv: -8%; RecA intein inh: -61; Arbovirus anti: 11

How did O=C(NCc1ccco1)/C(=C/C=C/c1ccccc1)NC(=O)c1ccco1 do in these assays?
Mtb bLac sens: -2; Mtb H37Rv: 3%; RecA intein inh: 1.7; Arbovirus anti: -1

What do the screens show for `CC(C)C(NS(=O)(=O)c1cccc2nsnc12)C(=O)N1CCc2ccccc2C1` (stereo unspecified)?
Mtb bLac sens: -3; Mtb H37Rv: -23%; YopH PTP inh: -36; RecA intein inh: -0.3; Arbovirus anti: 4

How did C=CCn1c(-c2ccccc2OC)n[nH]c1=S do in these assays?
Mtb bLac sens: -2; Mtb H37Rv: -9%; YopH PTP inh: -40; RecA intein inh: -0.9; Arbovirus anti: -2

How did Cc1c(C(=O)Nc2ccc(Cl)cc2)c2ccccn2c1C(=O)c1ccc([N+](=O)[O-])cc1 do in these assays?
Mtb bLac sens: 3; Mtb H37Rv: 4%; YopH PTP inh: 23; RecA intein inh: -1.7; Arbovirus anti: 5

What do the screens show for `O=[N+]([O-])c1ccc2nc(/C=C/c3ccc(Cl)cc3)[nH]c2c1`?
Mtb bLac sens: 99; Mtb H37Rv: 36%; YopH PTP inh: 6; RecA intein inh: 3.4; Arbovirus anti: -24

What do the screens show for `COc1ccccc1Cn1nnc2c(=O)[nH]c(C3CCN(C(=O)c4ccc(C)cc4)CC3)nc21`?
Mtb bLac sens: -4; YopH PTP inh: -1; RecA intein inh: 2.0; Arbovirus anti: 8

Results for O=S(=O)(NCc1cc(-c2ccccc2)no1)c1ccc(Cl)cc1 ?
Mtb bLac sens: 3; Mtb H37Rv: 17%; YopH PTP inh: -33; RecA intein inh: 0.6; Arbovirus anti: 7

How did COc1ccc(N(C(=O)c2ccc(C)cc2)S(=O)(=O)c2cccs2)cc1 do in these assays?
Mtb bLac sens: 6; Mtb H37Rv: 7%; YopH PTP inh: -17; RecA intein inh: 0.5; Arbovirus anti: 4

What do the screens show for `c1ccc(OCCOc2ncnc3sccc23)cc1`?
Mtb bLac sens: 7; Mtb H37Rv: 5%; YopH PTP inh: -27; RecA intein inh: -0.9; Arbovirus anti: 4

How did N#CC1=C(N)Nc2ncnn2C1c1ccc(F)cc1 (stereo unspecified) do in these assays?
Mtb bLac sens: -7; Mtb H37Rv: 1%; YopH PTP inh: -28; RecA intein inh: -2.8; Arbovirus anti: -16

Results for NNC(=O)CCc1ccc(S(=O)(=O)N2CCOCC2)cc1 ?
Mtb bLac sens: 1; Mtb H37Rv: -2%; RecA intein inh: -0.9; Arbovirus anti: 8

Results for COc1ccc(CCNC(=O)C2(C)CCC(=O)N2Cc2ccc3c(c2)OCO3)cc1OC (stereo unspecified) ?
Mtb bLac sens: 0; Mtb H37Rv: 2%; YopH PTP inh: 2; RecA intein inh: 0.4; Arbovirus anti: 3; Arbovirus anti repeat: 5

How did COc1cc2c(cc1OC)C(C)N(C(=O)c1cc3c(s1)-c1c(C)cccc1OC3)CC2 (stereo unspecified) do in these assays?
Mtb bLac sens: 46; YopH PTP inh: -17; RecA intein inh: 13; Arbovirus anti: -2

What do the screens show for `CCCn1c(=O)c(C(=O)NCc2ccncc2)c(O)c2ccccc21`?
Mtb bLac sens: 0; Mtb H37Rv: -2%; YopH PTP inh: -14; RecA intein inh: 3.7; Arbovirus anti: -9

How did CCC(=O)Nc1cccc(NC(=S)NC(=O)c2ccc(C)cc2)c1 do in these assays?
Mtb bLac sens: 8; Mtb H37Rv: 4%; RecA intein inh: 0.2; Arbovirus anti: -8

What do the screens show for `CCC(=O)Nc1ccc2c(c1)C(=O)c1ccccc1C2=O`?
Mtb bLac sens: 3; Mtb H37Rv: 21%; YopH PTP inh: -38; RecA intein inh: -0.7; Arbovirus anti: -20

What do the screens show for `CC(CCc1ccccc1)NC(=O)CNC(=O)c1cccs1` (stereo unspecified)?
Mtb bLac sens: -2; RecA intein inh: 1.3

How did CCc1noc(C)c1C(=O)NCCc1ccc(Cl)cc1 do in these assays?
Mtb bLac sens: -5; RecA intein inh: 1.0

2 consecutive compounds already listed, for reference:
How did Cc1c(C(=O)Nc2ccc(Cl)cc2)c2ccccn2c1C(=O)c1ccc([N+](=O)[O-])cc1 do in these assays?
Mtb bLac sens: 3; Mtb H37Rv: 4%; YopH PTP inh: 23; RecA intein inh: -1.7; Arbovirus anti: 5

What do the screens show for `O=[N+]([O-])c1ccc2nc(/C=C/c3ccc(Cl)cc3)[nH]c2c1`?
Mtb bLac sens: 99; Mtb H37Rv: 36%; YopH PTP inh: 6; RecA intein inh: 3.4; Arbovirus anti: -24

Back to the main list, repeating the five entries before the break.
What do the screens show for `CCCn1c(=O)c(C(=O)NCc2ccncc2)c(O)c2ccccc21`?
Mtb bLac sens: 0; Mtb H37Rv: -2%; YopH PTP inh: -14; RecA intein inh: 3.7; Arbovirus anti: -9

How did CCC(=O)Nc1cccc(NC(=S)NC(=O)c2ccc(C)cc2)c1 do in these assays?
Mtb bLac sens: 8; Mtb H37Rv: 4%; RecA intein inh: 0.2; Arbovirus anti: -8

What do the screens show for `CCC(=O)Nc1ccc2c(c1)C(=O)c1ccccc1C2=O`?
Mtb bLac sens: 3; Mtb H37Rv: 21%; YopH PTP inh: -38; RecA intein inh: -0.7; Arbovirus anti: -20

What do the screens show for `CC(CCc1ccccc1)NC(=O)CNC(=O)c1cccs1` (stereo unspecified)?
Mtb bLac sens: -2; RecA intein inh: 1.3

How did CCc1noc(C)c1C(=O)NCCc1ccc(Cl)cc1 do in these assays?
Mtb bLac sens: -5; RecA intein inh: 1.0

Results for O=S(=O)(NC(=S)NC1CCCCC1)c1cccs1 ?
Mtb bLac sens: -6; Mtb H37Rv: 2%; RecA intein inh: 2.7; Arbovirus anti: 4

What do the screens show for `COc1ccccc1OCc1ccc(C(=O)NC(C)(C)C)o1`?
Mtb bLac sens: -2; Mtb H37Rv: -2%; YopH PTP inh: -29; RecA intein inh: 2.4; Arbovirus anti: 3

Results for CC1(C)CC(NC2C3CC4CC(C3)CC2C4)CC(C)(C)N1 (stereo unspecified) ?
Mtb bLac sens: -10; Mtb H37Rv: -15%; RecA intein inh: -1.4

What do the screens show for `Cc1[nH]nc2nc(SCC(=O)NCC3CCCO3)n(-c3ccc(Br)cc3)c(=N)c12` (stereo unspecified)?
Mtb bLac sens: 7; Mtb H37Rv: -6%; YopH PTP inh: -41; RecA intein inh: -0.1; Arbovirus anti: -8

What do the screens show for `COc1ccc2cc3cc(C(=O)NCCN4CCc5ccccc5C4)oc3nc2c1`?
Mtb bLac sens: 2; Mtb H37Rv: 5%; YopH PTP inh: -26; Arbovirus anti: -12

How did COc1ccccc1N1CCN(C(=O)COc2cc(C)cc(C)c2)CC1 do in these assays?
Mtb bLac sens: 2; Mtb H37Rv: 7%; RecA intein inh: -0.9; Arbovirus anti: 6

How did CCCCN(C(=O)CCCSc1nc2ccccc2[nH]1)c1c(N)n(Cc2ccccc2)c(=O)[nH]c1=O do in these assays?
Mtb bLac sens: -10; RecA intein inh: -0.6

What do the screens show for `COc1ccc(-c2csc3nc(-c4ccc(C)cc4)oc(=O)c23)cc1OC`?
Mtb bLac sens: 12; Mtb H37Rv: 0%; YopH PTP inh: -34; RecA intein inh: -21; Arbovirus anti: -33

How did COc1ccc(CCNC(=O)CN(c2ccc(OC)c(OC)c2)S(=O)(=O)c2ccccc2)cc1OC do in these assays?
Mtb bLac sens: -1; RecA intein inh: -3.2

Results for O=[N+]([O-])c1cccc(S(=O)(=O)N2CCN(c3ccccn3)CC2)c1 ?
Mtb bLac sens: -2; RecA intein inh: 0.0

What do the screens show for `CSCCC(NS(=O)(=O)c1ccc2c(c1)oc(=O)n2C)C(=O)NCc1ccccc1` (stereo unspecified)?
Mtb bLac sens: -4; Mtb H37Rv: -10%; RecA intein inh: -1.0

Source: PubChem BioAssay (several laboratories)
